gsp antagonist = qHTS for Antagonists of gsp, the Etiologic Mutation Responsible for Fibrous Dysplasia/McCune-Albright Syndrome: qHTS | gsp-mutant cells, cAMP HTRF, 30 min; control for the full effect not named in the record | AID 624288, 2012 | Potency, µM (doses to about 76.9 µM), for the others: at the top dose activity change, negative = inhibition, hits mostly inhibitors | 0.4% of 340,000 active; active = falling curve of any shape with a large fitted effect; inconclusive = falling curve, mostly with a smaller effect; inactive = flat or rising curve; cell line not stated here;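 further: intracellular cAMP measured with PDE inhibitor Ro 20-1724 present during compound exposure; potency means the concentration at half of the fitted maximal effect; on the % scale 0 is the no-effect control and ±100 the full control effect; nearly all actives have a fitted effect of over 65% in size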
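G418-selected cells were plated in DMEM/10% FBS for 16-24 h at 37C, then treated with compounds plus the PDE inhibitor […] (300 uM solution added) for 30 min at 37C. Intracellular cAMP was measured by HTRF after 30 min lysis at room temperature.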
gsp ag = qHTS for Agonist of gsp, the Etiologic Mutation Responsible for Fibrous Dysplasia/McCune-Albright Syndrome: qHTS. AID 624287, 2012. gsp mutant cells, cAMP HTRF, 30 min; control for the full effect not named in the record. 0.13% of 340,000 active. Potency, µM (highest dose often 76.9 µM), inactives show at the top dose activation (cAMP increase), hits mostly activators; active = well fitted activation curve with a large enough effect; inconclusive = small, poorly fitted or top-dose-only effect, or another doubt; inactive = no such curve, though single readings can be large or run the other way; cell line not stated here;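 further: phosphodiesterase inhibitor Ro 20-1724 added with compounds to block cAMP breakdown; potency means the concentration at half of the fitted maximal effect; nearly all actives have a fitted effect of over 60% in size; about a fifth of the inactives were tested at one dose only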
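Cells stably selected in G418 were plated at 2000/well, grown 16-24 hr, then given compounds in DMSO with the PDE inhibitor […] (300 uM solution added) for 30 min at 37C; cAMP was read by HTRF.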
Menin MLL FP FL = qHTS Assay for Inhibitors Targeting the Menin-MLL Interaction in MLL Related Leukemias: Competition With Fluorescein Labeled MLL-derived Peptide. Fluorescence polarization, fluorescein-MLL peptide displacement from menin. FP activity change, % at 61.4 µM. 290,000 tested, under 10 active; inconclusive = falling polarisation curve, or a change in total fluorescence; inactive = total fluorescence flat and polarisation flat or rising; no compound was filed as active; the % refers to the polarisation; negative = inhibition;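 further: % of control where 0% means no effect; inhibitors lower the polarisation; unlabelled MLL peptide was the positive control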
TRPV1 potentiator = HTS Assay for Compounds that Act as Potentiators of the Vanilloid Receptor 1 | Transient receptor potential cation channel subfamily V member 1 (Homo sapiens), Q8NER1 | TRPV1-expressing cells, Fluo-8 calcium influx, capsaicin EC20 potentiation; host cell line not named in the record; control for the full effect not named in the record | potentiation, % at 8.33 µM | 0.02% of 320,000 active | AID 540277, 2011; active means potentiation above 80%; inconclusive means 30% to 80%; inactive means below 30%; further: 0% is about no effect
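TRPV1-expressing cells were cultured overnight at 35.5C and loaded with Fluo-8 calcium dye for 40 to 90 min at room temperature. After a 10 s baseline, compound was added and calcium influx was read kinetically for 3 min (ex 480/em 520 nm).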
TRPML1 blocker = qHTS for Inhibitors of the Human Mucolipin Transient Receptor Potential 1 (TRPML1); TRPML1-inducible cells, Ca2+ dye fluorescence, FDSS; stronger effect = lower value; inhibition of EC80 agonist-evoked calcium signal; 0.02% of 390,000 active; activity change, negative = inhibition, % (test concentration not listed); Mucolipin-1 (Homo sapiens), Q9GZU1; AID 624415, 2012; in the data active means activity change below about -50%; inconclusive means about -30% to -50%; inactive means above about -30%;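 further: stimulus is agonist 54-4 at its EC80 concentration; on the % scale 0 is the no-effect control and ±100 the full control effect; compound concentration not given in the record; the text of the record puts the active cut at -80%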
Target sequence (Q9GZU1 whole entry, looked up): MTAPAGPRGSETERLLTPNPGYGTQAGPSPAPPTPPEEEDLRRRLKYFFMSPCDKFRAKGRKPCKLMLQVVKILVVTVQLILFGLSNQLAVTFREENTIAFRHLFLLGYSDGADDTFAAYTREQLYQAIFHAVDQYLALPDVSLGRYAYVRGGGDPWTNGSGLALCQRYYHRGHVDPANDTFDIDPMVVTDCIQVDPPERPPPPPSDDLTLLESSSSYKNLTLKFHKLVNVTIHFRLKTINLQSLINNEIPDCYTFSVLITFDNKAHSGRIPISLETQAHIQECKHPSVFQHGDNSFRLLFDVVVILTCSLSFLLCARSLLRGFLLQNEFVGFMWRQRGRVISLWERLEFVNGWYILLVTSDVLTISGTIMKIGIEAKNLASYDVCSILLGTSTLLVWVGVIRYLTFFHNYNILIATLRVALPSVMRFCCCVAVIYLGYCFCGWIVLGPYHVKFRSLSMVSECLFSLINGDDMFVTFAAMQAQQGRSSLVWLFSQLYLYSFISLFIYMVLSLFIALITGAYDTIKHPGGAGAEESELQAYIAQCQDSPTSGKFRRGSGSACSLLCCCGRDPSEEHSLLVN
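Tet-induced TRPML1-DL cells loaded with Ca8 no-wash calcium dye were read kinetically on FDSS. Compound addition was followed by EC80 agonist 54-4 (4 uM final); inhibition was read over 110 s.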
Sfp inh = qHTS Assay for Inhibitors of Bacillus subtilis Sfp phosphopantetheinyl transferase (PPTase). 4'-phosphopantetheinyl transferase ffp (Bacillus subtilis), Q9F4F7. Biochemical Sfp PPTase activity, qHTS. Potency, µM, inactives show max response, negative = inhibition, hits mostly inhibitors. 3.5% of 310,000 active. AID 1490, 2009; active means well fitted inhibition curve with a large enough effect; inconclusive means small, poorly fitted or top-dose-only effect, or another doubt; inactive means no such curve, though single readings can be large or run the other way;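 further: the enzyme is Sfp with the accession as filed and its product quenches rhodamine fluorescence; potency means the concentration at half of the fitted maximal effect; 0% = enzyme reaction without inhibitor and -100% = no enzyme wells; top concentration of the series not given in the record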
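Compounds were incubated with enzyme (final 15 nM) for 15 min at room temperature before substrate addition started the reaction. Fluorescence at 525 nm excitation, 598 nm emission was recorded immediately and after 30 minutes.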
ClpP mod = qHTS Assay for Activators of ClpP; ATP-dependent Clp protease proteolytic subunit (Bacillus subtilis (strain 168)), P80244; purified B. subtilis ClpP, FRET peptide cleavage, 20 min; 1.9% of 340,000 active; AID 651965, 2013; Potency, µM (top dose mostly 57.5 µM), for the others: top-dose activity change, negative = active; active = well fitted falling curve with a large enough effect; inconclusive = small, poorly fitted or top-dose-only effect; inactive = no such curve, though single readings can be large or run the other way; further: potency means the concentration at half of the fitted maximal effect; the source files actives as falling curves though it sought activators and does not explain the sign; nearly all actives have a fitted effect of over 65% in size; many hits overshoot -100%
Target sequence (P80244 whole entry, looked up): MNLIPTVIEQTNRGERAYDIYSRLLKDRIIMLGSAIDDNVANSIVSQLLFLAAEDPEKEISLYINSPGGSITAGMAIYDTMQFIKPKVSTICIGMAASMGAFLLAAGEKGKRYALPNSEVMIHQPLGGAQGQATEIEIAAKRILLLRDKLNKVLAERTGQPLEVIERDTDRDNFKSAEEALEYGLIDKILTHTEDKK
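FRET quenching reversal measured ClpP activation: 10 microg/mL B. subtilis ClpP at pH 8 with the FRET-FV decapeptide, read at 430 nm after 320 nm excitation. The 20-min minus 0-min signal was scaled between DMSO/no-enzyme wells and ADEP (5.8 microM final).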
Numbers without * were called inactive; ? = inconclusive; . = no result given; & = joins results of further samples; [ ] = remark or other dose.

Below each compound – gsp antagonist	gsp ag	Menin MLL FP FL	TRPV1 potentiator	TRPML1 blocker	Sfp inh	ClpP mod
CCOC(=O)NN1C(=O)c2ccccc2NC1c1cccs1 (configuration not stated)
 : -6%	20%[15.4 µM]	1.3	2	-13	12%	0.4%
CCOc1ccc(/C=N/n2c(SC)nnc2-c2ccccc2)cc1OCC
 : 0%	13%	2.9	-5	18	16%	-5.7%
CC1=C(C)CC(C(=O)NCCc2ccc(F)cc2)C(C(=O)O)C1 (configuration not stated)
 : 1%	20%	-2.7	10	-6	27%	.
O=C(/C=C/c1ccccc1O)c1ccco1
 : -7%	2%[15.4 µM]	3.9	?	-5	2%	1.6µM*
COC(=O)CCc1n[nH]c(=O)[nH]c1=O
 : 6%	-4%	4.6	20	-25	18%	1.5%
Cc1ccc(C(=O)N2CCC(N3CCC(C(=O)N4CCOCC4)CC3)CC2)cc1
 : .	-21%	.	.	1	.	-0.4%
c1cc(CNCCN2CCNCC2)ccn1
 : -16%	20%	.	.	-16	.	.
CCc1ccc(NC(=O)C(=O)NCCN2CCN(C(=O)c3ccc(OC)cc3)CC2)cc1
 : .	?	.	.	23	.	-0.3%
COc1cccc(Cn2c(Oc3ccccc3)nc3c2c(=O)n(C)c(=O)n3C)c1
 : -7%	-24%	5.6	-16	18	-14%	-1.8%
Cc1cccc(NC(=O)CSc2nc(=O)n(CCCN3CCOCC3)c3c2CCCC3)c1C
 : .	-2%	.	.	13	.	-3.1%
O=C(O)c1ccc(OCCN2CCCC2=O)cc1
 : 9%	3%[15.4 µM]	0.9	2	12	8%	0.9%
C=CCn1c(SCC(=O)CC(=O)OCC)nc2cc(C(=O)N3CCC(C(N)=O)CC3)ccc2c1=O
 : -32%	4%[15.4 µM]	-1.0	-5	-3	-9%	.
COc1cccc(CNC(=O)C(C)n2ccc3cc(S(=O)(=O)N4CCCCCC4)ccc32)c1 (configuration not stated)
 : -10%	-4%	2.6	28	45&5	11%	-12%&-16%
Cc1csc(NC(=O)CSc2nc(=O)n(CCN(C)C)c3c2CCCC3)n1
 : 1%	0%	.	7	10	.	-8.7%
COCCNC(=O)/C(C#N)=C1\N=C(NC(=O)c2cccs2)c2ccccc21
 : 4%	-1%	?	1	-11	-9%	-0.7%
Cc1ccc(N2C(=O)N(CC(=O)N(C)Cc3ccccc3)C(=O)C2C)cc1 (configuration not stated)
 : 3%	-44%	-0.5	-3	17	13%	0.3%
CC(C(=O)Nc1ccccc1C(=O)N1CCCC1)n1nnc2ccccc21 (configuration not stated)
 : 7%	23%	6.0	0	2	-8%	-0.3%
CSc1ccc(C(=O)C2CCCN(C(=O)c3nn(C)c(=O)c4ccccc34)C2)cc1 (configuration not stated)
 : ?	-16%[15.4 µM]	-0.7	-1	7	16%	.
O=C(O)c1ccccc1/C=N/NC(=O)c1cc(-c2ccco2)nc2ccccc12
 : 5%	7%[15.4 µM]	19	.	7	10µM*	.
O=C(NCCOCC(F)(F)C(F)F)c1cc(F)c(F)cc1Cl
 : 1%	11%	-1.0	3	2	23%	0.8%

Entries of single compounds, quoted from the list. Order of screens: gsp antagonist	gsp ag	Menin MLL FP FL	TRPV1 potentiator	TRPML1 blocker	Sfp inh	ClpP mod
O=C(NCCOCC(F)(F)C(F)F)c1cc(F)c(F)cc1Cl in the list: 1%	11%	-1.0	3	2	23%	0.8%
O=C(O)c1ccccc1/C=N/NC(=O)c1cc(-c2ccco2)nc2ccccc12 in the list: 5%	7%[15.4 µM]	19	.	7	10µM*	.
CC(C(=O)Nc1ccccc1C(=O)N1CCCC1)n1nnc2ccccc21 (configuration not stated) in the list: 7%	23%	6.0	0	2	-8%	-0.3%
O=C(O)c1ccc(OCCN2CCCC2=O)cc1 in the list: 9%	3%[15.4 µM]	0.9	2	12	8%	0.9%
C=CCn1c(SCC(=O)CC(=O)OCC)nc2cc(C(=O)N3CCC(C(N)=O)CC3)ccc2c1=O in the list: -32%	4%[15.4 µM]	-1.0	-5	-3	-9%	.

Further records follow:
Below each compound – gsp antagonist	gsp ag	Menin MLL FP FL	TRPV1 potentiator	TRPML1 blocker	Sfp inh	ClpP mod
CC1(OC(=O)CCc2ccccc2)C(=O)C=C2C=C(c3ccc(C#N)cc3)N(C3CC3)C=C2C1=O (configuration not stated)
 : -8%	-4%	0.8[11.7 µM]	10	11	0%&3%	-2.1%
CCN(CC)C(=O)c1ccccc1NC(=O)c1ccccc1SC
 : 10%	3%[15.4 µM]	1.4	6	-4	6%	.
CC(C)C(OC(=O)/C=C/c1ccc2c(c1)OCO2)C(=O)NC(N)=O (configuration not stated)
 : 9%	1%[15.4 µM]	-2.9	-4	22	2%	.
O=C(CNCC1CCCCC1)Nc1ccccc1N1CCCCC1
 : -1%	-53%[inhibitor]	-1.2	-18	-2	?	0.0%
CCOC(=O)[C@@H]1[C@H]2COc3ccc(Br)cc3[C@@H]2N2C(=O)N(c3cccc(Cl)c3)C(=O)[C@]12C
 : -4%	.	.	.	30	.	-3.2%
CCCC(c1nnnn1CS(=O)(=O)c1ccc(C)cc1)N1CCN(C2CCCC2)CC1 (configuration not stated)
 : 4%	-54%[inhibitor]	-14	-5	-17	10%	.
Cn1c(=O)c2[nH]c(COc3ccccc3)nc2n(C)c1=O
 : 3%	3.2µM*	.	.	7	.	.
CC(=O)Nc1cc(NC(C)=O)c2nc(N)sc2c1
 : -8%	-1%	0.7	11	6	12%	1.3%
Cc1cc(C)c(C(=O)COC(=O)Cn2cnnn2)cc1C
 : -3%	-8%	1.9	-3	26	11%	-3.4%
CSc1nc2nc3c(cc2c(=O)n1-c1cccc(C)c1)COC(C)(C)C3
 : 7%	1%[15.4 µM]	1.5	6	25	5%	1.1%
CCN(CC)CC(=O)N1c2ccccc2Oc2c(c(=O)n(C)c(=O)n2C)C1c1cccc([N+](=O)[O-])c1 (configuration not stated)
 : 7%	2%	0.0	4	11	2%	.
CCOC(=O)C1=NOC(C(=O)NN(C)c2ncc(C(F)(F)F)cc2Cl)C1 (configuration not stated)
 : 1%	-3%[15.4 µM]	-2.0	0	-7	18%	.
COc1ccc(C(=O)COc2cccc(NC(=O)c3ccco3)c2)cc1
 : -26%	8%	-0.1	-3	17	3%	-1.6%
CCOC(=O)C1(CCOc2ccccc2)CCN(Cc2cc(OC)c3c(c2)OCO3)CC1
 : -5%	24%	-3.5	-4	13	4%	.
COc1ccc(-c2cc(OC)c3ccccc3n2)cc1
 : ?	-25%	0.8	-2	1	-14%	20µM*
C/C(=N/NC(=O)c1cc(C2CC2)[nH]n1)c1cccs1
 : 15%	-1%	3.0	-13	-5	3%	1.6%
COc1cc(/C=N/NC(=O)C(Cc2c[nH]c3ccccc23)NC(=O)OCc2ccccc2)cc([N+](=O)[O-])c1O (configuration not stated)
 : -18%	21%	-2.2	-4	-1	-12%	0.2%
CCc1ccccc1NC(=O)c1cc(-c2ccc(OC)cc2)on1
 : 11%	16%	8.6	1	-10&-27	20%	-1.7%&-2.5%
COc1ccc(C(=O)NCC2COc3ccccc3O2)cc1S(=O)(=O)N1CCOCC1 (configuration not stated)
 : 10%	0%	.	-13	4	.	-17%
CCCn1c(CN2CCN(C(=O)c3ccco3)CC2)nc2c1c(=O)n(C)c(=O)n2C
 : 9%	?	8.0	5	4	16%	-0.4%
COC(=O)c1cc(OC)c(OC)cc1NC(=O)Nc1ccc(OC)cc1OC
 : 10%	22%	2.6	13	5	-9%	33%
O=C(O)c1ccccc1N1C(=O)c2cccc3cccc(c23)C1=O
 : 14%	20%[15.4 µM]	-3.2	3	-2	14%	-3.7%
O=C(COC(=O)C1CCN(c2ccc(C(F)(F)F)cn2)CC1)Nc1cc(F)ccc1F
 : 2%	22%	.	-4	18	.	-14%
Cc1ccc2c(c1)N(CC(=O)NCc1ccco1)C(=O)CO2
 : 7%	7%	3.9	-2	-3	10%	-1.3%
O=C(COC(=O)Cn1ccc(=O)[nH]c1=O)Nc1ccc(F)cc1
 : 8%	-5%[15.4 µM]	.	.	2	.	0.1%
O=C1N(Cc2cccnc2)C[C@@H]2C[C@@H](c3ccc(-c4ccccc4)cc3)N3CCC[C@@]123
 : -28%	2%[15.4 µM]	4.0	16	-9	-26%	.
O=C(NC1CC2CCC1C2)C1COc2ccccc2O1 (configuration not stated)
 : 11%	0%	-0.1	-16	1	12%	-0.9%
CN(C)CCCn1c(SCC(=O)Nc2nc(-c3cccc(Br)c3)cs2)nc2ccccc2c1=O
 : 7%	-1%[15.4 µM]	1.5	-1	-15	45µM*	.
COC(=O)c1ccc(COc2cc([N+](=O)[O-])cc3cccnc23)o1
 : -8%	?	2.4	11	-7	-8%	0.5%
Cc1ccc(C(=O)C(C)OC(=O)Cn2[nH]c(=O)c3ccccc3c2=O)cc1C (configuration not stated)
 : -4%	1%	.	-21	2	-1%	7.1%
CCOC(=O)/C=C/c1ccc2c(c1)S(=O)(=O)N(Cc1ccc(OC)cc1)[C@H]2CC(=O)OCC
 : -2%	.	.	.	6	.	-6.4%&-11%
O=C1CCC(C(=O)N2CCN(c3cnccn3)CC2)CN1CCc1ccc(Cl)cc1 (configuration not stated)
 : -12%	-23%	1.8	-7	5	6%	-12%

Bioassay records as filed in PubChem BioAssay.
